Screens (PubChem BioAssay)
ClpP mod: qHTS Assay for Activators of ClpP | 340,000 compounds, 1.9% hits | Potency, µM (top dose mostly 57.5 µM), without a hit: top-dose activity change, negative = active | purified B. subtilis ClpP, FRET peptide cleavage, 20 min | ATP-dependent Clp protease proteolytic subunit (Bacillus subtilis (strain 168)), P80244; active = well fitted falling curve with a large enough effect; inconclusive = small, poorly fitted or top-dose-only effect; inactive = no such curve, though single readings can be large or run the other way; also: potency is read from the fitted curve at half-maximal effect; the source files actives as falling curves though it sought activators and does not explain the sign; nearly all actives have a fitted effect of over 65% in size; many hits overshoot -100%
Target sequence (P80244 whole entry, looked up): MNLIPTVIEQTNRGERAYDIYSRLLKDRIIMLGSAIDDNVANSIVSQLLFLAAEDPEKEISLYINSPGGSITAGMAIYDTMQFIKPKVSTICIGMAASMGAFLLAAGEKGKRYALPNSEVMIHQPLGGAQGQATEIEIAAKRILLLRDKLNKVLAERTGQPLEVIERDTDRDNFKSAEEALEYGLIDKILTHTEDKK
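FRET quenching reversal measured ClpP activation: 10 microg/mL B. subtilis ClpP at pH 8 with the FRET-FV decapeptide, read at 430 nm after 320 nm excitation. The 20-min minus 0-min signal was scaled between DMSO/no-enzyme wells and ADEP (5.8 microM final).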
Sfp inh: inhibitors of Bacillus subtilis Sfp phosphopantetheinyl transferase | Q9F4F7 | Biochemical Sfp PPTase activity, qHTS | Potency, µM, for the others: max response, negative = inhibition, actives largely listed as inhibitors | 310,000 compounds, 3.5% hits; active = well fitted inhibition curve with a large enough effect; inconclusive = small, poorly fitted or top-dose-only effect, or another doubt; inactive = no such curve, though single readings can be large or run the other way;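 also: the enzyme is Sfp with the accession as filed and its product quenches rhodamine fluorescence; potency is read from the fitted curve at half-maximal effect; 0% = enzyme reaction without inhibitor and -100% = no enzyme wells; top concentration of the series not given in the record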
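Fluorescence-quenching assay with 15 nM Sfp, 5 uM rhodamine-CoA and 12.5 uM BHQ-2-labelled ybbR peptide in pH 7.6 Hepes/MgCl2 buffer. Enzyme was pre-incubated with compound for 15 min at room temperature. Rate was taken from the 30-min fluorescence change (525/598 nm).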
gsp antag: antagonizes gsp, the McCune-Albright syndrome mutation. AID 624288. 340,000 compounds, 0.4% hits. Potency, µM (highest dose often 76.9 µM), for the others: top-dose activity change, negative = inhibition, actives largely listed as inhibitors. gsp-mutant cells, cAMP HTRF, 30 min; control for the full effect not named in the record; active = falling curve of any shape with a large fitted effect; inconclusive = falling curve, mostly with a smaller effect; inactive = flat or rising curve; cell line not stated here;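 also: intracellular cAMP measured with PDE inhibitor Ro 20-1724 present during compound exposure; potency is read from the fitted curve at half-maximal effect; % is scaled to controls: 0 for no effect and ±100 for the full control effect; nearly all actives have a fitted effect of over 65% in size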
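Measurement of cellular cAMP by homogeneous time-resolved fluorescence following a 30 min compound exposure at 37C. The PDE inhibitor […] was present throughout; the assay buffer was DPBS with 0.05% BSA and 0.005% Tween 20.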
TRPV1 potentiator: enhances activation of the human vanilloid receptor TRPV1; TRPV1-expressing cells, Fluo-8 calcium influx, capsaicin EC20 potentiation; host cell line not named in the record; control for the full effect not named in the record; 320,000 compounds, 0.02% hits; potentiation, % at 8.33 µM; active means potentiation above 80%; inconclusive means 30% to 80%; inactive means below 30%; also: 0% is about no effect
Target sequence (Q8NER1 whole entry, looked up): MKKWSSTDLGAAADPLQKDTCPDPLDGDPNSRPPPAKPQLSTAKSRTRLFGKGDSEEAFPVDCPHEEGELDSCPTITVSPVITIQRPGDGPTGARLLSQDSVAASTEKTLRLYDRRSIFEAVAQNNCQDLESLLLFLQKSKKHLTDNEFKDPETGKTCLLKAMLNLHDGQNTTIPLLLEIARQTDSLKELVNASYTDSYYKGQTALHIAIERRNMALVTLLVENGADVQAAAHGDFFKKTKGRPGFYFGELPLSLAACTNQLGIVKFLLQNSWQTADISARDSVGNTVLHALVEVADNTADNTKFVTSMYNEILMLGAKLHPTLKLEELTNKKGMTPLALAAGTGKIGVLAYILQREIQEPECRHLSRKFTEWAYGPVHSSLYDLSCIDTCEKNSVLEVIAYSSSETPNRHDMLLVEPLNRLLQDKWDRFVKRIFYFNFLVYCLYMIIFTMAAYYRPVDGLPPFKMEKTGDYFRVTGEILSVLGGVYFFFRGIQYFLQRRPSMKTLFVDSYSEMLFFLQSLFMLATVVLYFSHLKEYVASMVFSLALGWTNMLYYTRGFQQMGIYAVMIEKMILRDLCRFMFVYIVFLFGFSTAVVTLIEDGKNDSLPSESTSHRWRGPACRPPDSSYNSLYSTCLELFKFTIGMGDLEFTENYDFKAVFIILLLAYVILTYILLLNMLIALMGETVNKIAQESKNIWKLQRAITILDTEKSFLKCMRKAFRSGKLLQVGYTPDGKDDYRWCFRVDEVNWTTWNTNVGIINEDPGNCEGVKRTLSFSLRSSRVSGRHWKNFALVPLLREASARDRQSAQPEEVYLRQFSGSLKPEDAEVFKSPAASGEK
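Fluo-8 calcium influx in TRPV1-expressing cells, kinetic read (ex 480/em 520 nm). Compound added and read 3 min for agonist activity, followed by capsaicin at EC20 final and 2 min further read for enhancement.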
Menin MLL FP FL: displaces fluorescein MLL peptide from human menin; AID 1766; Fluorescence polarization, fluorescein-MLL peptide displacement from menin; FP activity change, % at 61.4 µM; 290,000 tested, under 10 active; inconclusive = falling polarisation curve, or a change in total fluorescence; inactive = total fluorescence flat and polarisation flat or rising; no compound was filed as active; the % refers to the polarisation; negative = inhibition;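 also: % of control where 0% means no effect; inhibitors lower the polarisation; unlabelled MLL peptide was the positive control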
CtBP-E1A inh: blocks the CtBP interaction with E1A. activity change, % (test concentration not listed). AlphaScreen GST-E1A/His-CtBP binding, 1536-well; stronger effect = lower value; control for the full effect not named in the record. 340,000 compounds, 0.49% hits. AID 651724; in the data active means activity change below about -65%; inconclusive means about -30% to -65%; inactive means above about -30%; also: % is scaled to controls: 0 for no effect and ±100 for the full control effect
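AlphaScreen with 125 nM GST-E1A and 125 nM His-CtBP (5X stocks) in Tris pH 8.0, 300 mM NaCl, BSA, Tween 20, TCEP. Compounds preincubated 2 h at 37 deg C, then glutathione donor/nickel acceptor beads added for 1 h at 37 deg C in dark.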
gsp ag: agonists of gsp mutant (McCune-Albright syndrome). gsp mutant cells, cAMP HTRF, 30 min; control for the full effect not named in the record. Potency, µM (doses to about 76.9 µM), without a hit: at the highest dose activation (cAMP increase), most hits filed as activators. 340,000 compounds, 0.13% hits. AID 624287; active = well fitted activation curve with a large enough effect; inconclusive = small, poorly fitted or top-dose-only effect, or another doubt; inactive = no such curve, though single readings can be large or run the other way; cell line not stated here;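 also: phosphodiesterase inhibitor Ro 20-1724 added with compounds to block cAMP breakdown; potency is read from the fitted curve at half-maximal effect; nearly all actives have a fitted effect of over 60% in size; about a fifth of the inactives were tested at one dose only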
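Cells stably selected in G418 were plated at 2000/well, grown 16-24 hr, then given compounds in DMSO with the PDE inhibitor […] (300 uM solution added) for 30 min at 37C; cAMP was read by HTRF.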
An asterisk follows results filed as active; ? = inconclusive; . = not tested or not shown; & = joins results of further samples; [ ] = dose if it differs, or a comment.

SMILES | ClpP mod | Sfp inh | gsp antag | TRPV1 potentiator | Menin MLL FP FL | CtBP-E1A inh | gsp ag
CS/C(Nc1cc(Cl)ccc1Cl)=C(/C#N)C(=O)c1ccco1 | -0.4% | 18% | -26% | -1 | 13 | 1 | 1%[15.4 µM]
O=C(CSc1nc2ccccc2s1)N1c2ccccc2Sc2ccccc21 | -0.8% | 0% | -4% | . | 2.8 | 12 | -3%
CCCCSCc1ccc(C(=O)O)o1 | 0.5% | 19% | -8% | 23 | 6.7 | 41 | 22%
CCn1cc(C(=O)NCc2cccs2)c(=O)c2ccc(C)nc21 | -3.5% | -2% | 2% | ? | -1.4 | -5 | 3%
COCCNC(=O)C1Nc2ccc(OC(F)(F)F)cc2C2C=CCC12 (centres undefined) | -3.4% | . | -1% | . | . | 4 | .
COc1cc(-c2nn3c(-c4cccc(C)c4)nnc3s2)cc(OC)c1OC | 12% | 10% | 3% | 13 | -1.4 | -24 | -2%
COc1cc(NC(=O)c2cccs2)c(C(=O)OCC(=O)NC(=O)NC(C)(C)C)cc1OC | ? | 3% | -4% | 15 | 2.0 | -5 | -4%
O=C(Cn1cnc2ccccc2c1=O)c1ccccc1 | 0.0% | 14% | 11% | -1 | 0.9 | 1 | -64%[inhibitor]
FC(F)(F)c1cccc(OCc2nnc3n2CCC3)c1 | . | -14% | -23% | -1 | -0.8 | 15 | 17%[15.4 µM]
Cc1cccc(CSc2cccc3cccnc23)c1 | ? | -21% | 9% | -10 | 2.1 | -92* | ?
COC(=O)c1ccc(-n2cncn2)c(F)c1 | -0.7% | 10% | 8% | 4 | 4.3 | 3 | ?
Cc1nc2cccc(C(=O)NC3CCCCC3)c2o1 | ? | 29% | -6% | 11 | -0.8 | 0 | 0%
N#CC[C@H](Cc1ccccc1)N1CC[C@@H](NC(=O)OCc2ccccc2)CCC1=O | 0.7%&-0.4% | 1% | 7% | 22 | -2.3 | -1 | -2%
Cc1ccc(N2C(=O)C(Cl)=C(N3CCOCC3)C2=O)cc1Cl | -1.0% | -9% | -17% | -15 | 4.4 | -2 | -59%
CC(C)C[C@@H](NC(=O)[C@H]1CCCN1C(=O)Cc1ccccc1)C(N)=O | 1.8% | 21% | 6% | 4 | 1.1 | 7 | -20%
CSC1=C(C#N)C2(CCCCC2)C(C(=O)Nc2ccccc2)=C(C)N1 | -0.8% | . | 3% | . | . | 0 | 25%
Cc1cccn2c(/C=N/OCc3ccc(F)cc3)c(-c3ccc(Cl)cc3)nc12 | ? | -13% | -8%[15.4 µM] | 13 | -0.3 | 6 | 2%
Cc1ccc(S(=O)(=O)Nc2ccc3nc(N)sc3c2)cc1 | -2.4% | 6% | -24% | 5 | 0.0 | ? | ?
NC(=O)NC(=O)C(c1ccccc1)N1CCN(S(=O)(=O)c2ccc(Br)s2)CC1 (centres undefined) | -0.2% | . | -22% | 11 | . | . | -8%
Nc1nonc1-c1noc(N2CCOCC2)n1 | -1.7% | 4% | 7% | 28 | -2.3 | -1 | ?
S=C(NC1CC1)N1CCc2ccccc2C1 | -1.4% | 9% | 1% | -7 | -5.5 | . | 27%
Cc1ccc(/C=N/c2sc3c(c2C#N)CCC3)s1 | -1.0% | -7% | 0% | 3 | 0.8 | -10 | 1%
C/C(=N\NC(=S)Nc1c(C)cccc1C)c1ccc(OC(F)F)cc1 | . | -25% | -28% | -4 | 6.3 | -4 | -2%[15.4 µM]
O=C1OC(C(=O)O)Cc2ccccc21 (centres undefined) | -1.6% | 13% | 6% | 15 | 2.2 | 6 | -4%
CC(C)CCN1CCN(CCCn2cccn2)CC1CCO (centres undefined) | -0.6% | -4% | 11% | 14 | 1.8 | -9 | 0%

Record cards, as listed above. Order of values: ClpP mod | Sfp inh | gsp antag | TRPV1 potentiator | Menin MLL FP FL | CtBP-E1A inh | gsp ag
Shown for `CC(C)CCN1CCN(CCCn2cccn2)CC1CCO` (centres undefined) → -0.6% | -4% | 11% | 14 | 1.8 | -9 | 0%
Shown for `COC(=O)c1ccc(-n2cncn2)c(F)c1` → -0.7% | 10% | 8% | 4 | 4.3 | 3 | ?

Next records
SMILES | ClpP mod | Sfp inh | gsp antag | TRPV1 potentiator | Menin MLL FP FL | CtBP-E1A inh | gsp ag
O=S(=O)(NCC(c1ccco1)N1CCN(c2ccccc2F)CC1)c1ccccc1 (centres undefined) | -13% | 13% | -21% | -1 | 9.7 | -4 | -42%[inhibitor]
N#C/C(=C\c1ccncc1)c1nc2ccccc2o1 | . | ? | -2% | 2 | 8.8 | 1 | 16%[15.4 µM]
CCCCN(C(=O)Cc1ccc(S(=O)(=O)N2CCOCC2)s1)c1ccccc1 | -2.0% | . | 3% | 18 | . | -20 | -10%[15.4 µM]
COc1ccccc1NC(=O)c1cc(S(=O)(=O)N2CCCCCC2)ccc1F | -2.1% | 4% | 4% | 4 | . | -9 | -2%
CCOC(=O)Cc1csc(SC(C)C(=O)Nc2ccc(NC(C)=O)cc2)n1 (centres undefined) | -0.4% | 8% | 0% | 3 | -0.2 | 6 | 0%
COc1ccc(Cl)cc1S(=O)(=O)N1CCCC(C(=O)N2CCCC2)C1 (centres undefined) | -2.0% | -2% | 8% | -2 | . | -11 | -7%
CCN(C(=O)c1cc2ccccc2o1)C12CC3CC(CC(C3)C1)C2 | . | -13% | . | -11 | 1.1 | . | .
Cc1ccccc1N1CCN(C(=O)CCN2C(=O)c3ccccc3C2=O)CC1 | -1.3% | -3% | 4% | . | 3.2 | 6 | -32%[inhibitor]
COc1ccc(C(=O)Nc2ccc(NC(=O)c3ccco3)cc2)cc1 | . | -7% | 3% | 9 | 1.5 | -19 | 14%
O=C(NCC1CCCO1)/C(=C/c1ccc(Cl)cc1)NC(=O)c1ccccc1 (centres undefined) | -4.6% | 17% | 5% | -9 | 24 | 2 | -33%[inhibitor]
O=C(Nc1cccc(S(=O)(=O)N2CCCCC2)c1)c1ccc2c(=O)n3c(nc2c1)CCCCC3 | -9.7% | -20% | ? | 13 | 8.6 | -6 | 5%
O=C(Nc1ccc(S(=O)(=O)Nc2ccccn2)cc1)c1cccc(Br)c1 | -8.0% | -3% | -9% | 2 | . | -16 | 6%
CN(C)C(=S)NC1(C)CCS(=O)(=O)C1 (centres undefined) | 0.6% | 17% | 2% | -8 | -0.7 | 1 | 23%
Cc1ccc2nc(C)cc(N3CCOCC3)c2c1 | -1.6% | -11% | 13% | 9 | -0.4 | 11 | -21%
Cc1cccc(NC(=O)COc2ccc(/C=C\c3[nH]c(=O)[nH]c(=O)c3[N+](=O)[O-])cc2)c1 | . | 50µM* | 2% | -1 | -0.2 | 2 | -9%[15.4 µM]
CC(Cl)C(=O)NNC(=O)CNS(=O)(=O)c1ccccc1 (centres undefined) | 0.3% | 6% | 3% | 8 | -1.4 | . | -13%
CCCN1CCN(CCCNC(=O)CN2C(=O)C(CC)Oc3ccccc32)CC1 (centres undefined) | -1.2% | 19% | 14% | 0 | 4.1 | 1 | 68%
COc1ccc(OC)c(S(=O)(=O)NCCCN2CCCC2=O)c1 | -2.4% | 22% | 2% | -12 | 1.7 | 0 | 17%
CCOC(=O)N1CCC(NS(=O)(=O)c2ccc(NC(C)=O)c(Cl)c2)CC1 | . | 28% | 5% | 0 | 6.4 | 0 | ?
COc1ccc(N/C(N)=N/c2nc(C)cc(C)n2)c(OC)c1 | . | -1% | 2% | 2 | 4.2 | -6 | 9%[15.4 µM]
COc1cc(-c2nnc(SC(C)C(=O)Nc3c(C)n(C)n(-c4ccccc4)c3=O)o2)cc(OC)c1OC (centres undefined) | 1.3% | 15% | 6% | 29 | 6.8 | 1 | -1%
CC(C)NS(=O)(=O)c1ccc(NC(=O)C(C)OC(=O)CCCOc2ccccc2)cc1 (centres undefined) | -0.5% | . | 0% | 14 | . | -2 | 8%[15.4 µM]
CCN(CC)CCNc1nc(-c2cccs2)c(CC(=O)O)s1 | -1.1% | 56µM* | 5% | 3 | -2.8 | -7 | 18%[15.4 µM]
Nn1c(SCC(=O)NC2CCCCCC2)nnc1-c1ccco1 | 1.6% | . | . | . | . | 3 | 18%
O=C(CCCn1c(=O)[nH]c2cc(Cl)ccc2c1=O)NC1CCCCCCC1 | 12% | 18% | 19% | 3 | 2.5 | -2 | -3%
SMILES | ClpP mod | Sfp inh | gsp antag | TRPV1 potentiator | Menin MLL FP FL | CtBP-E1A inh | gsp ag
CCn1c(-c2ccc[nH]c2=O)nc2ccccc21 | 5.2% | 23% | -5% | -1 | 0.4 | . | 10%
CCOc1ccc(S(=O)(=O)N(CC)CC(=O)NC2CCS(=O)(=O)C2)cc1 (centres undefined) | -1.3% | . | 4% | -8 | . | -1 | ?
O=C(Nc1ccccc1[N+](=O)[O-])c1nc[nH]c1C(=O)NCCO | 1.6% | 3% | 19% | -14 | 1.8 | ? | 4%
CC(C)C[C@H](NC(=O)OC(C)(C)C)C(=O)N1CCC(C(=O)N[C@@H](Cc2ccccc2)C(=O)O)CC1 | -1.7% | 7% | 0% | 5 | -3.4 | -9 | -40%
O=C(CCN1CCN(c2ccccc2F)CC1)Nc1ccc(F)cc1 | 0.7% | 6% | -2% | 0 | -0.3 | . | -10%
COc1cccc(-n2c(C)nn(CCOc3ccccc3)c2=O)c1 | . | 0% | 26% | 0 | 0.9 | -10 | -5%[15.4 µM]
CSCCC(NC(=O)c1ccccc1)C(=O)N1CCCCCCC1 (centres undefined) | 1.1% | . | 10% | 9 | . | . | ?
O=C(Nc1ccn(CCCNCc2ccc3[nH]ccc3c2)c(=O)n1)OCc1ccccc1 | -0.1% | . | -7% | . | . | -11 | .
Cc1ccnc(NS(=O)(=O)c2ccc(NC(=O)CN3C(=O)c4ccccc4S3(=O)=O)cc2)n1 | -0.7% | . | -16% | -13 | . | -3 | -3%[15.4 µM]
O=[N+]([O-])c1ccc(Cl)c(C[n+]2cccc3ccccc32)c1 | -6.2% | 20% | 2% | ? | 2.0 | . | 17%
CCN1CCN(c2cc(C)c3cc(NC(=S)N4CCC5(CC4)OCCO5)ccc3n2)CC1 | -9.7% | 23% | 16% | -2 | -0.5 | -4 | 9%
O=C(CC(=O)NCc1cccnc1)NCc1cccnc1 | 0.1% | 10% | 4% | 21 | 6.3 | 2 | -21%
